Autofluor counter = counter-screen for toxin protease inhibitors: compound fluorescence. compound autofluorescence counterscreen, microsphere flow cytometry; stronger effect = higher value. fluorescence intensity (concentration not given with the values). 360,000 tested, 3.1% active;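 active = at least 3 SD above the mean of all compounds, about 16000 in these data; inconclusive = too few beads counted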;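 note: 100 nL of 1 mM stock went into each well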
PrP 5UTR inh = inhibition of PrP 5' UTR reporter expression | cell-based PrP 5' UTR mRNA reporter, plate reader | inhibition, % (test concentration not listed) | 340,000 tested, 0.35% active | AID 488862;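 active = every replicate at 50% or more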;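 note: 0 = median of the neutral control wells; tested in H4 reporter cells; numbers are from one replicate; inactives centre near -14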
BJeLR lethal = BJeLR cell viability loss. inhibition, % (no concentration beside the values). BJeLR (HRASV12) viability, CellTiter-Glo ATP luminescence, 48 h; reference of the scale not given here. AID 1554. 300,000 tested, 0.17% active;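 active = replicate mean above 50%; inconclusive = above 50% but judged a plate artefact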;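 note: 50 nL library stock added to about 25 µL; numbers are from one replicate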
Mtb hypoxia rep = inhibitors of hypoxia-regulated fluorescent reporter in Mycobacterium tuberculosis; 300,000 tested, 0.1% active; AID 1159583; M. tuberculosis hypoxia-regulated fluorescent reporter, fluorescence; fluorescence inhibition, % (concentration not given with the values);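 active = 35 to 45% if threefold the growth effect, above 45% if 1.5-fold the growth effect; inactive = the rest, general growth blockers included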;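 note: wells of about 50 µL received 100 nL stock; 0% = vehicle wells and 100% = reference inhibitor wells; whole bacteria with a GFP reporter of the hypoxia response; strong numbers were not always called active; many hits fall short of the cut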
Sa ugtP lethal = kills S. aureus RN4220 lacking UgtP; AID 1259309; S. aureus RN4220 ugtP deletion, OD600 growth, 16 h; some inactives read as strong as hits; 330,000 tested, 0.54% active; growth inhibition, % (test concentration not listed);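 active = z-score under -3 and OD600 up to 0.15 on both plates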;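 note: plate controls were untreated wells for no effect and antibiotic for full effect; wells of about 80 µL received 100 nL stock; the first replicate is given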
Sa RN4220 lethal = S. aureus RN4220 growth inhibition; OD600, 16 h; inhibition, % (test concentration not listed); 330,000 tested, 0.33% active;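 active = z-score of -3 or lower and OD600 up to 0.18 on both plates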;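 note: plate controls were untreated cells for no effect and reference antibiotic for full effect; stock transfer was 100 nL into about 80 µL; one replicate is shown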
Mtb hypoxia rep growth = also measured in Mtb hypoxia rep; calls as there; growth inhibition, %; measured here: M. tuberculosis growth (absorbance);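 0% = vehicle and 100% = reference antibiotic; read after six days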
* = called active by the depositor; ? = inconclusive; · = no result given; & = joins results of further samples. No enrichment for hits; about 4.1% have a hit in one of these screens.

Compound,Autofluor counter,PrP 5UTR inh,BJeLR lethal,Mtb hypoxia rep,Mtb hypoxia rep growth,Sa ugtP lethal,Sa RN4220 lethal
O=S(=O)(c1ccc(Cl)nc1)N1CCN(Cc2ccc3c(c2)OCO3)CC1,3395,-25,10,3,4,5,3.7
CCOC(=O)c1sc(N)c(C#N)c1CSc1nnc(C2CC2)n1N,8951,-25,12,2,-5,-3,3.0
O=C(ON=C1CCN(S(=O)(=O)c2ccccc2)CC1)c1cccc(Cl)c1,4355,-21,-2,17,17,12,6.7
CN(C)C(=O)Oc1ccc(NC(=O)N2CCOCC2)cc1,3143,-36,0,-4,0,12,7.2
O=C(CCC1CCCC1)Nc1ccc(OCC(=O)N2CCOCC2)cc1,3753,-14,4,12,2,5,1.5
O=[N+]([O-])c1ccccc1/C=N/N1CCN(Cc2ccccc2)CC1,3076,-43,-14,·,·,·,·
O=C(Nc1ccccn1)NC1CCCCC1,2379,-2,7,·,·,3,3.4
COc1ccc(S(=O)(=O)Nc2cccc3c2OC(CN(C)Cc2ccccc2)C(C)CN(C(C)CO)C3=O)cc1 (stereo unspecified),·,·,·,10,9,-3,1.5
CC(c1ccccc1C(O)(c1ccccc1)c1ccccc1)N(C)C (stereo unspecified),5317,-21,-4,11,1,-8,0.5
CCOc1ccc(-c2noc(COC)n2)cc1OC,2408,-19,·,·,·,-2,-0.8
O=C(COc1ccccc1Cl)NCCCNC(=O)c1cccnc1,3935,-17,2,5,9,3,2.4
c1ccc(-c2nc(CSc3n[nH]c(-c4cccs4)n3)cs2)cc1,11018,-21,-8,9,15,5,-3.0
CN(C)C1=NCC(CSC(=N)N)S1 (stereo unspecified),3380,-19,·,11,1,5,1.4
CN(C)S(=O)(=O)c1cccc(NC(=O)c2cc(-c3cccs3)nn2-c2ccccc2)c1,2416,-22,1,-2,-3,6,1.0
Cn1cnnc1SCC(=O)Nc1ccccc1C(=O)NC1CCCC1,9916,-7,6,-1,4,-9,-3.5
COc1ccc(NC(=O)c2ccc(CNc3c(NC4CCCCC4)c(=O)c3=O)cc2)cc1OC,3710&5852,-22&-36,1,5&5,8&3,4&3,5.1&5.1
N#Cc1ccc(N/N=C/c2ccccc2)c([N+](=O)[O-])c1,3331,-26,-4,·,·,·,·
CC(C)CC1=NC(C(F)(F)F)(C(F)(F)F)c2c(n(CC(C)C)c(=O)[nH]c2=O)N1,2007,-23,7,·,·,·,·
O=C(Nc1nnc(C2=COCCO2)o1)c1cccc([N+](=O)[O-])c1,6066,-17,18,9,-3,1,-0.9
COc1ccc2c(c1)-c1ccccc1S(=O)(=O)N(C)C2,2764,-15,·,0,-1,7,-0.2

(list continues)
Compound,Autofluor counter,PrP 5UTR inh,BJeLR lethal,Mtb hypoxia rep,Mtb hypoxia rep growth,Sa ugtP lethal,Sa RN4220 lethal
CN(C)c1cc[n+](CC(=O)Nc2ccc(Oc3ccccc3)cc2)cc1,4579,-26,-13,-10,7,-5,0.7
Cc1ccc(S(=O)(=O)N(CC(=O)N2CCC(C(N)=O)CC2)Cc2ccc(F)cc2)cc1,8120,-27,-6,10,2,12,2.9
CCn1c(SCC(=O)Nc2ccc(C(C)=O)cc2)nc2ccccc21,8977,-40,-5,2,12,-6,2.2
Cc1c(C(=O)OCC(=O)NCCc2ccc(S(N)(=O)=O)cc2)oc2ccccc12,8579,-37,·,5,-3,3,2.2
Cc1cc(C(=O)Nc2ccc(Cl)cc2)on1,3482,-30,-2,5,3,9,-5.2
Oc1ccc(N2CCN(c3nnnn3-c3ccccc3)CC2)cc1,3680,-11,-6,4,8,2,0.1
O=C(O)CNS(=O)(=O)c1ccc2[nH]c(=O)c(=O)[nH]c2c1,4589,-18,3,-1,10,-73,2.6
Cc1cccc(-c2c3c(=O)n(C)c(=O)n(C)c3cn2CC2CCCO2)c1 (stereo unspecified),3442,-7,2,-2,-4,-10,-2.6
CNC(=O)C1CC(=O)N(c2ccc(OCC(=O)NCc3ccccc3)cc2)C1 (stereo unspecified),5788,-24,-2,-3,2,9,-0.1
O=C1NN(c2ccccc2)C(=O)/C1=C\c1coc2ccc(O)cc2c1=O,3358,-9,3,·,·,·,·
COc1cccc(-n2cnc3sc(-c4ccccc4)cc3c2=O)c1,4282,-55,-4,13,-4,1,-0.2
O=C(OCC1CC(c2ccccn2)=NO1)c1ccc(Br)cc1 (stereo unspecified),7961,-50,-2,3,6,-1,11
N#C/C(=N\Nc1ccc([N+](=O)[O-])cc1)C(=N)N1CCOCC1,4705,-55,-2,·,·,·,·
O=C1CC(c2cc(Br)ccc2F)c2cc3c(cc2N1)CCC3 (stereo unspecified),10779,48,23,10,11,-10,6.8
Cc1onc(-c2c(F)cccc2Cl)c1C(=O)Nc1sc2c(c1C#N)CCC(C(C)(C)C)C2 (stereo unspecified),3121,-2,2,6,1,13,2.7
O=C(CNC(=O)c1ccccc1F)NCCCN1CCCC1=O,?,-6,-10,-1,-1,1,1.7
CCOC(=O)C1(C)NC(c2ccc(N(C)C)cc2)C2C(=O)N(c3ccc(OC)cc3)C(=O)C21 (stereo unspecified),4107,-12,2,-11,-6,0,-1.2
Cc1c(C(=O)Nc2ccccc2)c2ccc(C(F)(F)F)cc2n1O,5808,·,0,9,-3,-12,18
CC1(C)S[C@@H]2[C@H](NC(=O)C(NC(=O)N3CCNC3=O)c3ccccc3)C(=O)N2[C@H]1C(=O)O (stereo partly specified),3645,-13,-10,3,-2,100*,100*
O=[N+]([O-])c1ccc(-c2csc3[n+]2CCS3)cc1,2431,-8,-9,3,7,0,3.5

Rewritten with each value named: part of the list above
> Cc1cccc(-c2c3c(=O)n(C)c(=O)n(C)c3cn2CC2CCCO2)c1 (stereo unspecified)
  Autofluor counter: 3442 | PrP 5UTR inh: -7 | BJeLR lethal: 2 | Mtb hypoxia rep: -2 | Mtb hypoxia rep growth: -4 | Sa ugtP lethal: -10 | Sa RN4220 lethal: -2.6
> Oc1ccc(N2CCN(c3nnnn3-c3ccccc3)CC2)cc1
  Autofluor counter: 3680 | PrP 5UTR inh: -11 | BJeLR lethal: -6 | Mtb hypoxia rep: 4 | Mtb hypoxia rep growth: 8 | Sa ugtP lethal: 2 | Sa RN4220 lethal: 0.1

Other results
Compound,Autofluor counter,PrP 5UTR inh,BJeLR lethal,Mtb hypoxia rep,Mtb hypoxia rep growth,Sa ugtP lethal,Sa RN4220 lethal
CCc1cc2cc3c(cc2nc1SCC(=O)Nc1cc(C)on1)OCO3,2993,9,0,1,-3,-3,0.7
O=C(O)CNC(=O)CC1S/C(=N/N=C/c2ccccc2O)NC1=O (stereo unspecified),2520,-14,5,·,·,·,·
CC(C)c1ccc(NC(=O)CSc2nc(=O)n(CCCN3CCOCC3)c3c2CCC3)cc1,6828,-26,2,2,0,9,-1.0
CCC(C)N1C(=O)CCC1C(=O)N1CCN(c2ccccc2F)CC1 (stereo unspecified),7868,-23,2,4,0,14,4.5
CCC(=NCCO)c1c(O)n(C2CCCCC2)c(=O)[nH]c1=O,2811,-60,-14,8,3,-1,2.5
Cc1ccccc1C(=O)c1cccn1CC(=O)NCCCN1CCCCC1,6596,5,-5,11,18,2,1.5
CC1CCN(CCCCOc2ccc(C(=O)c3ccccc3)cc2)CC1,·,-13,1,11,27,11,-1.0
CC1CC(C)CN(C(=O)c2ccncc2)C1 (stereo unspecified),4671,5,1,·,·,7,2.0
O=C(O)c1cccnc1SCc1cn2cc(Cl)ccc2n1,4336,-7,4,6,-5,2,2.0
CC1CCCC(NC(=O)COC(=O)c2ccc3ncsc3c2)C1C (stereo unspecified),4000,-6,·,8,2,1,-0.9
CN(C)C=Nc1c(C(=O)c2ccccc2)sc2nccc(N(C)C)c12,1995,-5,10,-6,0,5,2.5
CCCCNC(=O)C1CCCN1C(=O)NC1CCCCC1 (stereo unspecified),9671,-19,-2,9,6,8,3.7
CCOC(=O)C1(C(=O)OCC)C(C(=O)c2ccccc2)C1c1ccccc1 (stereo unspecified),4024,-22,·,8,5,22,5.9
COc1ccc(N=C/C=C2\C=C(c3ccccc3)OC(C)(C)O2)cc1,5235,-24,3,17,16,-8,5.8
CCOC(=O)c1c(NC(C)=O)sc2c(O)cccc12,21384*,-17,1,12,12,-11,4.7
Cc1cc(C(=O)Nc2ccc(F)cc2C)n(-c2ccccc2)n1,4582,-18,1,1,-3,6,2.3
CC(C)(C)c1ccc(-c2n[nH]c(=S)n2Cc2ccccc2)cc1,3767,-13,-1,12,4,4,0.9
CCOC(=O)c1c(C)[nH]c(C(=O)NN=Cc2ccccc2O)c1C,·,·,·,3,2,0,7.2
CCOC(=O)c1nn(-c2ccccc2)c2nnc(Cc3ccccc3)c(=O)n12,2014,-18,-23,-7,-9,3,-1.2
NCCc1c(Cc2ccccc2)[nH]c2ccccc12,·,·,-5,6,-1,-4,1.3

New compounds follow:
Compound,Autofluor counter,PrP 5UTR inh,BJeLR lethal,Mtb hypoxia rep,Mtb hypoxia rep growth,Sa ugtP lethal,Sa RN4220 lethal
Cc1cc(NS(=O)(=O)c2ccc(NC(=O)c3ccc([N+](=O)[O-])c(Cl)c3)cc2)no1,4284,-12,-4,·,·,2,-2.3
COC(=O)C1=CN(c2cc(C)cc(C)c2)C=C(C(=O)OC)C1c1ccc(OC)c(O)c1,3163,1,-3,3,3,32,16
CCOC(=O)C1=CNS(=O)(=O)NC1c1ccc(C(=O)OC)cc1 (stereo unspecified),2970,-27,·,-2,0,-1,-1.3
O=C(c1ccc(F)cc1)N1CCN(c2ccc([N+](=O)[O-])c(N3CCCCC3)c2)CC1,5878,-36,-1,-2,15,-12,-1.1
Cc1ccc(N2C(=O)CC(C)CC2=O)cc1,3736,-21,4,12,1,8,5.4
COc1ccc(N2C(=O)CSC2c2ccc3c(c2)OCO3)c(OC)c1 (stereo unspecified),4172,-24,-15,5,-1,1,-0.2
CCOc1ccc2nc(NC(=O)CSc3cn[nH]n3)sc2c1,5084,-74,-4,5,-6,2,4.0
Cc1cc(OCC(=O)OCC(=O)Nc2cccnc2Cl)ccc1Cl,·,-8,·,1,0,4,0.0
COc1cc(/C=N/N=C2/C(=O)Nc3ccccc32)cc(OC)c1O,2141,-18,-22,·,·,·,·
Cc1cccc(NC(=O)c2ccc(CN3CCN(Cc4ccccc4)CC3)cc2)c1,4041,-14,8,-2,-3,7,3.7
COc1ccc(NC(=O)CC2C(=O)N(C)C(=S)N2Cc2ccncc2)cc1 (stereo unspecified),4402,2,-8,-7,-3,9,16
c1ccc(Cn2nnnc2C(c2ccccc2)N2CCN(c3nc4ccccc4s3)CC2)cc1 (stereo unspecified),2388,-30,4,·,·,-5,-1.5
CCc1ccc(C=C2C(=O)N(C)C(=S)N2CC(=O)OC)s1,·,·,·,3,10,-11,0.9
Cc1oc(-c2cccs2)nc1CN1CCC(c2ccccc2)CC1,5560,6,-5,0,7,2,5.8
COc1ccccc1Nc1ncnc2c1c(C)c(C)n2CCCN(C)C,3979,-15,9,10,6,11,-1.6
O=C(Oc1cccc2c(=O)[nH]ccc12)c1ccccc1,4296,-21,·,·,·,0,3.0
COc1cccc(OC)c1C1=CC(=O)CC(c2ccc3c(c2)OCO3)C1 (stereo unspecified),·,·,·,5,4,-13,4.5
CCOc1ccc(NC(=O)CN(C)C(=O)c2cc(S(=O)(=O)N3CCCCC3)ccc2Cl)cc1OCC,4170,-9,10,·,·,5,3.8
O=S(=O)(c1ccc(NC(=S)N/N=C/c2cccc(Oc3ccccc3)c2)cc1)N1CCOCC1,2873,-22,-9,·,·,·,·
COc1ccccc1CNC(=O)COC(=O)/C=C/c1cccs1,2167,-10,1,-3,-1,8,1.4
CN(C)CC(O)COc1cccc(OCC(O)CN(C)C)c1 (stereo unspecified),4514,-15,14,6,4,-3,2.9
COc1cc(-c2noc(C)c2C#CC2(N)CCCCC2)cc(OC)c1OC,3072,1,-10,1,16,3,5.3

Full records, looked up by structure. Values in the order: Autofluor counter, PrP 5UTR inh, BJeLR lethal, Mtb hypoxia rep, Mtb hypoxia rep growth, Sa ugtP lethal, Sa RN4220 lethal
`O=C(Oc1cccc2c(=O)[nH]ccc12)c1ccccc1` across the screens: 4296, -21, ·, ·, ·, 0, 3.0
`c1ccc(Cn2nnnc2C(c2ccccc2)N2CCN(c3nc4ccccc4s3)CC2)cc1` (stereo unspecified) across the screens: 2388, -30, 4, ·, ·, -5, -1.5
`COc1cccc(OC)c1C1=CC(=O)CC(c2ccc3c(c2)OCO3)C1` (stereo unspecified) across the screens: ·, ·, ·, 5, 4, -13, 4.5
`O=C(c1ccc(F)cc1)N1CCN(c2ccc([N+](=O)[O-])c(N3CCCCC3)c2)CC1` across the screens: 5878, -36, -1, -2, 15, -12, -1.1
